High-throughput results (PubChem)
PK Bst = modulators of Bacillus stearothermophilus pyruvate kinase | partly purified Bacillus stearothermophilus pyruvate kinase, luminescence ATP production; ribose 5-phosphate activator present at AC10 | AID 361 | 1.2% of 51,000 active | Potency, µM; in the data active means potency below about 11 µM; inconclusive means mostly about 12 µM to 25 µM; inactive means weaker than that;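 the screen sought inhibitors and activators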;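 note: potency is the fitted concentration of half-maximal effect; scaled between full activation by ribose 5 phosphate and full inhibition by luteolin; about four in five hits inhibit and the cells do not say which; series up to 57 µM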
TsaE inh = inhibitors of E. coli YjeE (TsaE) | P0AF67 | purified YjeE, fluorescence polarisation of a bound ADP probe | Potency, µM | 0.05% of 71,000 active | AID 605; active = well fitted falling curve; inconclusive = weaker or top-dose-only fall, or a rising curve; inactive = flat or poorly fitted curve;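 note: top concentration of the series not given in the record; excess ADP was the control for the full effect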
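Purified YjeE (10 uM) with BODIPY Texas Red-labeled ADP probe (2 uM); compounds pin-transferred, 15 min at room temperature. Binding inhibition read as decreased fluorescence polarization; ADP titration as control.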
The depositor's hits bear a star; i = inactive; ? = inconclusive; . = not tested or not shown. The list is partial; the hit share may differ from the screen's.

PK Bst	TsaE inh	Molecule
>57	i	COCc1cc(=O)[nH]c(SCC(=O)Nc2ccccc2)n1
>11.4	i	Cc1nc(Nc2ccncc2)c2oc3ccccc3c2n1
i	i	O=C(O)[C@@H]1CCCC[C@@H]1C(=O)N1CCc2ccccc2C1CN1C(=O)c2ccccc2C1=O (some centres undefined)
.	i	COc1ccc(-c2nc3cnc(OC)nc3n(C[C@H]3CCCO3)c2=O)cc1
>57	i	Nc1nnc(CCN2C(=O)CSC2=O)s1
?	i	COc1ccc(C(=O)c2oc3ccccc3c2N)cc1
i	i	O=C(Nc1ccc(C(=O)Oc2ccccc2)c(O)c1)c1ccco1
.	i	O=C1c2ccccc2-c2cc([N+](=O)[O-])c([N+](=O)[O-])cc21
>57	i	CCN(CC)CCN1C(=O)C(=O)/C(=C(/O)c2cccc(OC)c2)C1c1ccccn1 (centres undefined)
>25.6	.	CCN(CC)C(=O)c1sc2nc(-c3cccs3)cc(-c3cccs3)c2c1N
.	i	COc1ncc2nc(-c3ccc(Cl)cc3)c(=O)n(Cc3cccs3)c2n1
>57	i	Cc1ccc(NC(=O)CS(=O)CC(=O)NCC2OCCc3ccccc32)c(C)c1 (centres undefined)
>57	i	Cc1cc(C)cc(N(CC(=O)NCC2CCCO2)C(=O)CN2C(=O)COc3ccccc32)c1 (centres undefined)
>57	i	Cc1ccc(NC(=O)N2CCC(C(=O)NCCC3=CCCCC3)CC2)cc1
>57	i	Cc1onc(-c2ccccc2Cl)c1C(=O)Nc1cccnc1
>25.6	.	COc1cccc(-c2nc(N3CCN(Cc4ccccc4)CC3)c3ccccc3n2)c1O
>57	i	CC(C)OC(=O)c1cc(=O)[nH]c2ccccc12
>57	i	COc1cccc(CC(=O)Nn2c(C)nc3ccccc3c2=O)c1
>57	i	CCc1nnc(NC(=O)c2cc3c(s2)CCCCC3)s1
>57	i	CSc1ccc(S(=O)(=O)NCc2ccccc2Cl)cc1
.	i	CCCCN1C(=O)C(O)(CC(=O)c2ccccc2OC)c2ccccc21 (centres undefined)
>25.6	.	CCOc1ccc(/C(O)=C2/C(=O)C(=O)N(CCN(CC)CC)C2c2ccco2)cc1 (centres undefined)
.	i	COc1ccccc1CNc1nc(-c2cccc(NS(C)(=O)=O)c2)nc2ccccc12
.	i	Cc1ccccc1NC(=O)CN1C(=O)COc2ccc(Cl)cc21
.	i	COc1ccc(-c2nnc3ccc(SCC(=O)N4CCCC4)nn23)cc1
>57	i	CCc1nc2ccc(C(=O)NCc3ccco3)cc2nc1CC
>57	i	O=C(O)C1C2C=CC(O2)C1C(=O)NCc1ccc(Cl)cc1 (centres undefined)
.	i	CCOC(=O)c1cc2c(=O)n(C)c3ccccc3c2s1
>57	i	O=C(O)CSc1nnc(-c2ccncc2)n1CCc1ccccc1
2.16*	i	COc1ccc(/C=N\n2nnc3ccccc32)cc1
>57	i	Cc1cccc(CS(=O)(=O)Cc2ccc(C(=O)NCc3ccco3)o2)c1
.	i	CCCCCCCCCCCCC1CO1 (centres undefined)
>57	i	Cc1[nH]c(=O)[nH]c(=O)c1NC(=O)CSc1ncccc1-c1nc2ccccc2[nH]1
>57	i	Cc1cc(C)n(-c2nc3c(c(=O)n(C)c(=O)n3C)n2Cc2cccc(Br)c2)n1
.	i	Cc1ccc(Cl)cc1N1CCN(C(=O)C2CCN(c3nnc(-n4cccc4)s3)CC2)CC1
>57	i	Cc1ccc(-c2noc(CCC(=O)N3CCN(c4cccc(C(F)(F)F)c4)CC3)n2)cc1
>57	i	O=C(NC1CCCC1)C(c1cccnc1)N(C(=O)c1csnn1)C1CC1 (centres undefined)
>57	i	Cc1nn(-c2ccccn2)c(C)c1Oc1ccccc1O
>57	i	c1ccc(CNc2ncnc3ccccc23)cc1
.	i	CCN(CC)c1ccc(NC(=O)CN2C(=O)CSc3ncccc32)c(C)c1
>57	i	CCS(=O)(=O)N1CCc2cc(OC)c(OC)cc2C1
.	i	COc1ccc(CCNC(=O)CSc2nnnn2-c2ccccc2)cc1
>57	i	Nc1cc(=O)nc(SCc2ccccc2)n1Cc1ccco1
>11.4	.	COc1cccc(Cn2c(NCc3ccco3)nc3c2c(=O)n(C)c(=O)n3C)c1
?	i	Cc1cccc(C)c1NS(=O)(=O)c1ccc(F)cc1
.	i	COC(=O)[C@@]1(Cc2ccc(F)cc2)[C@H]2c3cc(C(=O)N(C)C)n(Cc4ccccn4)c3C[C@H]2CN1C(=O)c1ccccc1
>57	i	COc1cccc(-c2nc(CC(=O)O)cs2)c1OC
>57	i	CCCNC(=O)c1ccccc1NC(=O)CN(c1ccccc1OCC)S(C)(=O)=O
>57	i	CCOc1ccc(NC(=O)CNC(=O)c2ccc(OC)c(OC)c2)cc1
>25.6	.	CC1(C)CC(=O)C2=C(C1)OC(N)=C(C#N)C21C(=O)N(CN2CCOCC2)c2ccccc21 (centres undefined)

Among those listed so far, these contain an aryl thioether with sulfur outside any ring.
PK Bst	TsaE inh	Molecule
>57	i	COCc1cc(=O)[nH]c(SCC(=O)Nc2ccccc2)n1
>57	i	CSc1ccc(S(=O)(=O)NCc2ccccc2Cl)cc1
.	i	COc1ccc(-c2nnc3ccc(SCC(=O)N4CCCC4)nn23)cc1
>57	i	O=C(O)CSc1nnc(-c2ccncc2)n1CCc1ccccc1
>57	i	Cc1[nH]c(=O)[nH]c(=O)c1NC(=O)CSc1ncccc1-c1nc2ccccc2[nH]1
.	i	COc1ccc(CCNC(=O)CSc2nnnn2-c2ccccc2)cc1
>57	i	Nc1cc(=O)nc(SCc2ccccc2)n1Cc1ccco1

2 consecutive entries out of the list so far, quoted:
PK Bst	TsaE inh	Molecule
>57	i	CCc1nc2ccc(C(=O)NCc3ccco3)cc2nc1CC
>57	i	O=C(O)C1C2C=CC(O2)C1C(=O)NCc1ccc(Cl)cc1 (centres undefined)

(continued)
PK Bst	TsaE inh	Molecule
>57	i	NC(=O)C1CC(=O)N(Cc2ccc3c(c2)OCO3)C(=Nc2ccccc2)S1 (centres undefined)
>57	i	Cc1cccc(N2CC3=C(C2=O)C(c2ccccc2)NC(=O)N3C)c1 (centres undefined)
>57	i	CCN(Cc1ccccc1)C(c1ccncc1)c1nnnn1C(C)(C)C (centres undefined)
>57	i	CCOC(=O)N1CCC(NC(=O)c2cn(-c3ccc(OC)cc3)c(=O)c3ccccc23)CC1
.	i	CCOC(=O)c1[nH]c(C)c(C(=O)Nc2ccc(Cl)cc2)c1C
.	i	CCC(Oc1ccccc1)C(=O)Nc1cc(C)on1 (centres undefined)
>57	i	O=C(CSc1nnnn1C1CCCCC1)NCCc1ccccc1
>57	i	Cn1c2c(c(=O)[nH]c1=O)C(NC(=O)c1ccco1)(C(F)(F)F)C(=O)N2 (centres undefined)
>25.6	.	CCOC(=O)CSc1nnc(C)c(=O)[nH]1
>57	i	CCN(CC)S(=O)(=O)c1cccc(-c2nnc(SCC(=O)NCCC3=CCCCC3)n2N)c1
.	i	CC(=O)n1nc(-c2ccco2)nc1SCc1ccccc1
.	i	O=C(CN1C(=O)COc2ccccc21)Nc1ccc(F)cc1
.	i	OC1CCCC1
.	i	CC(C)NC[C@H](O)c1ccc(O)c(O)c1
.	i	Oc1cccc2ccc(SSc3ccc4cccc(O)c4n3)nc12
>57	i	CC(C)(C)NC(=O)CN(C(=O)CS(=O)CC(=O)Nc1ccc(F)cc1)c1ccc(Cl)cc1 (centres undefined)
>57	i	Cc1ccnc(NC(=O)CCC(=O)N(CC(=O)NCCc2ccccc2)Cc2ccco2)c1
>57	i	O=C(NCc1ccco1)c1ccc2c(=O)n(CCC3=CCCCC3)c(=O)[nH]c2c1
.	i	CCOC(=O)Nc1sc(NS(=O)(=O)c2ccccc2)nc1C
>57	i	Cc1cc(Oc2ccccc2)nc(OCC#N)n1
>57	i	O=C1c2ccccc2NC(c2ccccn2)N1c1ccc(Cl)cc1 (centres undefined)
>57	i	CCCCNc1nc2ccccc2n1CC(=O)N1CCc2ccccc2C1
.	i	CCCCCn1c(N(C)Cc2ccccc2)nc2c1c(=O)[nH]c(=O)n2C
>57	i	Cc1noc(C)c1S(=O)(=O)NCCCN1CCN(Cc2ccccc2)CC1
>57	i	COCCn1c(C23CC4CC(CC(C4)C2)C3)n[nH]c1=S
>11.4	i	Cc1c(NCc2nc3ccccc3[nH]2)c(=O)n(-c2ccccc2)n1C
.	i	CC(C)=C[C@H]1[C@@H](COC(=O)c2ccccc2Cl)C1(C)C
.	i	Cn1c(CNC(=O)c2ccc(F)cc2)nc2ccccc21
>57	i	COCc1nnc(NC(=O)CSc2ccc(C)cc2)s1
>57	i	CCOC(=O)c1sc(C)c2c(=O)n(CC)nnc12
>57	i	CC1CCN(c2ccc(C(=O)NCCc3ccccc3)cn2)CC1
.	i	CCOc1ccc(C(=O)N2CCN(c3cccc(C)c3C)CC2)cc1
>11.4	.	O=C1CC(c2ccccc2)NC(=O)N1 (centres undefined)
>57	i	Cc1ccc(-c2nnc3ccc(SCC(=O)NCc4ccco4)nn23)cc1
.	i	COc1ccc(CN2CCN(c3ccccn3)CC2)c(OC)c1
>57	i	O=C(NC1CCCCC1)c1ccc2c(=O)n(CC3CCCO3)c(=O)[nH]c2c1 (centres undefined)
.	i	CCOc1ccccc1Nc1cc(C)nc2nc(C)nn12
>57	i	Cc1c(C(=O)N2CCOCC2)oc2c1C(=O)CC(C)(C)C2
>57	i	Nc1nc(NCc2ccccc2)nc(-c2ccccc2)n1
.	i	Cc1ccccc1-c1nnc(-c2ccc(Cl)cc2)o1
>57	i	CCOC(=O)N1CCN(C(=O)c2ccc(N3C(=O)c4ccccc4C3=O)cc2)CC1
>57	i	Cc1nc2nc(-c3cccnc3)[nH]n2c(=O)c1Cc1ccccc1
.	i	C=CCSc1nnc(Cn2c(=O)sc3ccccc32)n1C
.	i	CC(C)[C@@H](CC(=O)N[C@@H]1CCCC[C@H]1C(=O)N[C@H](CC(=O)N[C@@H](CCC(=O)O)CC(=O)O)Cc1c[nH]c2ccccc12)NC(=O)C[C@H](CO)NC(=O)[C@@H]1CNCC[C@H]1N
>57	i	COc1ccc2c(c1OC)C(=O)OC2Nc1ccccc1S(=O)(=O)C(F)F (centres undefined)
>57	i	CN(C)C(CNC(=O)NC1CCCCC1)c1cccnc1 (centres undefined)
>57	i	CCCOc1ccccc1NC(=O)c1ccc(N)cc1
.	i	COC(=O)CSc1nc(-c2ccccc2)cc(-c2ccco2)c1C#N
.	i	COc1ccc(NC(=O)N2CCCC3(CCN(C(=O)c4ccco4)CC3)C2)cc1
.	i	CCOC(=O)N1CCC(Nc2c(NCCCN(CC)c3cccc(C)c3)c(=O)c2=O)CC1

PK Bst: entries above that show a hit.
PK Bst	TsaE inh	Molecule
2.16*	i	COc1ccc(/C=N\n2nnc3ccccc32)cc1

More compounds follow:
PK Bst	TsaE inh	Molecule
i	i	CCc1nc(-c2ccc(-c3ccc(OC)cc3)nc2OC)no1
>57	i	CCCCN(C(=O)c1ccco1)c1nnc(-c2cc(OC)c(OC)c(OC)c2)s1
.	i	COc1ccc(-c2nc3cnc(Nc4cccc(OC)c4)nc3n(C)c2=O)cc1
>57	i	O=C1CCCc2c1nn(-c1ccccc1)[n+]2[O-]
>57	i	CSCCC(NC(=O)c1ccccc1)c1nc(-c2ccccc2)no1 (centres undefined)
>57	i	CC(=O)NC(C)C(=O)OCc1ccc(Cl)cc1Cl (centres undefined)
.	i	O=C(Nc1cccc(F)c1)N1CCC2(CC1)CCN(S(=O)(=O)c1ccccc1)CC2
>57	i	CN(C)/C=C/c1c(C#N)c(=O)ncn1Cc1ccccc1
.	i	C=C(C)[C@H]1CC[C@]2(C(=O)O)CC[C@]3(C)[C@@H](CC[C@H]4[C@@]5(C)CC[C@@H](O)C(C)(C)[C@@H]5CC[C@@]43C)[C@H]12
.	i	Nc1ccccc1N
>57	i	CCCc1cc(C(=O)Cc2ccc(C(=O)OCC)o2)c(O)cc1O
>57	i	O=C1NCCCC1C(=O)Nc1ccccn1 (centres undefined)
>57	i	COc1ccccc1-n1nc(C(=O)NCc2ccco2)c2ccccc2c1=O
>57	i	O=C(NCCN1CCCC1)c1ccc2c(=O)n(CCc3ccccc3)c(=O)[nH]c2c1
.	i	O=c1c2ccccc2nc2n1CCN2
>57	i	Cc1ccc(OCC(=O)N2CCCCCC2)c(C)c1
>57	i	CCOC(=O)c1cnc2nc(COc3ccccc3)[nH]n2c1=O
>57	i	COC(=O)C1=C(C)NC(=O)NC1c1ccccc1 (centres undefined)
>57	i	Cc1cc(C)c2nc(-c3ccccn3)cc(C(=O)NCc3ccco3)c2c1
i	i	Cn1c(C(=O)O)c(CC(=O)Nc2ccc(F)cc2F)c2ccccc21
>57	i	FC(F)(F)c1cnc(Nc2ccc(N3CCOCC3)cc2)c(Cl)c1
.	i	Cc1cc(C)n2c(SCC(=O)Nc3ccccc3)nnc2n1
.	i	O=c1c(-c2cc(F)cc(F)c2)nc2cnc(N3CCNCC3)nc2n1C1CC1
.	i	COc1cccc(S(=O)(=O)N2CCN(c3ccccc3F)CC2)c1
>57	i	CCNC(=O)C1CC(=O)N(Cc2ccc3c(c2)OCO3)C(=Nc2ccc(F)cc2)S1 (centres undefined)
>57	i	CN(C)Cc1cc(C(C)(C)c2cc(CN(C)C)c(O)c(CN(C)C)c2)cc(CN(C)C)c1O
.	i	C[C@@H](C(=O)Nc1ccc2ccccc2c1)[C@@H]1C[C@@]1(C)[C@@H](NS(=O)(=O)c1ccccc1)c1ccccc1
.	i	CCN1C(=O)c2cccc3c(S(=O)(=O)NCc4ccco4)ccc1c23
>57	i	CC(C)NC(=O)CN(C)S(=O)(=O)c1ccc(F)cc1
